Menin MLL FP FL – qHTS Assay for Inhibitors Targeting the Menin-MLL Interaction in MLL Related Leukemias: Competition With Fluorescein Labeled MLL-derived Peptide; Fluorescence polarization, fluorescein-MLL peptide displacement from menin; FP activity change, % at 61.4 µM; 290,000 tested, under 10 active; inconclusive = falling polarisation curve, or a change in total fluorescence; inactive = total fluorescence flat and polarisation flat or rising; no compound was filed as active; the % refers to the polarisation; negative = inhibition;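 note: % of control where 0% means no effect; inhibitors lower the polarisation; unlabelled MLL peptide was the positive control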
ClpP mod – qHTS Assay for Activators of ClpP | Potency, µM (top dose mostly 57.5 µM), without a hit: at the top dose activity change, negative = active | AID 651965, 2013 | 340,000 tested, 1.9% active | purified B. subtilis ClpP, FRET peptide cleavage, 20 min; active = well fitted falling curve with a large enough effect; inconclusive = small, poorly fitted or top-dose-only effect; inactive = no such curve, though single readings can be large or run the other way; note: potency is the fitted concentration of half-maximal effect; the source files actives as falling curves though it sought activators and does not explain the sign; nearly all actives have a fitted effect of over 65% in size; many hits overshoot -100%
Target sequence (P80244 whole entry, looked up): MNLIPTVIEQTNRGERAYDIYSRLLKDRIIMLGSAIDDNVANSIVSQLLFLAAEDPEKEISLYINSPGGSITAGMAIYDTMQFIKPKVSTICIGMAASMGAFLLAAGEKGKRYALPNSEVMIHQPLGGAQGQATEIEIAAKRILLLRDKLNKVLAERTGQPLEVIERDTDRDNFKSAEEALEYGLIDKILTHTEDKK
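Buffer: 100 mM Tris/HCl pH8, 100 mM KCl, 0.05% low protease BSA, 2.5% glycerol, 0.01% Tween-20. ClpP 10 microg/mL final; 20 min RT; delta FRET normalized to ADEP and DMSO controls.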
gsp agonist – qHTS for Agonist of gsp, the Etiologic Mutation Responsible for Fibrous Dysplasia/McCune-Albright Syndrome: qHTS; gsp mutant cells, cAMP HTRF, 30 min; control for the full effect not named in the record; 340,000 tested, 0.13% active; Potency, µM (series often up to 76.9 µM), for the others: at the highest dose activation (cAMP increase), hits mostly activators; active = well fitted activation curve with a large enough effect; inconclusive = small, poorly fitted or top-dose-only effect, or another doubt; inactive = no such curve, though single readings can be large or run the other way; cell line not stated here;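 note: phosphodiesterase inhibitor Ro 20-1724 added with compounds to block cAMP breakdown; potency is the fitted concentration of half-maximal effect; nearly all actives have a fitted effect of over 60% in size; about a fifth of the inactives were tested at one dose only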
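Cells stably selected in G418 were plated at 2000/well, grown 16-24 hr, then given compounds in DMSO with the PDE inhibitor […] (300 uM solution added) for 30 min at 37C; cAMP was read by HTRF.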
Sfp inh – qHTS Assay for Inhibitors of Bacillus subtilis Sfp phosphopantetheinyl transferase (PPTase). 4'-phosphopantetheinyl transferase ffp (Bacillus subtilis), Q9F4F7. Biochemical Sfp PPTase activity, qHTS. Potency, µM, inactives show max response, negative = inhibition, usual class: inhibitors. 310,000 tested, 3.5% active; active = well fitted inhibition curve with a large enough effect; inconclusive = small, poorly fitted or top-dose-only effect, or another doubt; inactive = no such curve, though single readings can be large or run the other way;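 note: the enzyme is Sfp with the accession as filed and its product quenches rhodamine fluorescence; potency is the fitted concentration of half-maximal effect; 0% = enzyme reaction without inhibitor and -100% = no enzyme wells; top concentration of the series not given in the record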
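Buffer: 50 mM Hepes-Na pH 7.6, 10 mM MgCl2, 0.01% Nonidet P-40, 0.01% BSA. Enzyme 15 nM, pre-exposed to compound 15 min; substrates then added and fluorescence change tracked over 30 min.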
gsp antagonist – qHTS for Antagonists of gsp, the Etiologic Mutation Responsible for Fibrous Dysplasia/McCune-Albright Syndrome: qHTS; gsp-mutant cells, cAMP HTRF, 30 min; control for the full effect not named in the record; Potency, µM (top dose mostly 76.9 µM), without a hit: at the top dose activity change, negative = inhibition, hits mostly inhibitors; 340,000 tested, 0.4% active; active = falling curve of any shape with a large fitted effect; inconclusive = falling curve, mostly with a smaller effect; inactive = flat or rising curve; cell line not stated here;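 note: intracellular cAMP measured with PDE inhibitor Ro 20-1724 present during compound exposure; potency is the fitted concentration of half-maximal effect; % is set by controls: 0 for no effect and ±100 for the full control effect; nearly all actives have a fitted effect of over 65% in size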
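HTRF cAMP measurement after 30 min RT detection following 30 min, 37C compound treatment alongside […] (added as 300 uM solution) in G418-selected cells seeded at 2000/well and grown 16–24 h.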
TRPV1 potentiator – HTS Assay for Compounds that Act as Potentiators of the Vanilloid Receptor 1 | Transient receptor potential cation channel subfamily V member 1 (Homo sapiens), Q8NER1 | TRPV1-expressing cells, Fluo-8 calcium influx, capsaicin EC20 potentiation; host cell line not named in the record; control for the full effect not named in the record | potentiation, % at 8.33 µM | 320,000 tested, 0.02% active | AID 540277, 2011; active means potentiation above 80%; inconclusive means 30% to 80%; inactive means below 30%; note: 0% is about no effect
Target sequence (Q8NER1 whole entry, looked up): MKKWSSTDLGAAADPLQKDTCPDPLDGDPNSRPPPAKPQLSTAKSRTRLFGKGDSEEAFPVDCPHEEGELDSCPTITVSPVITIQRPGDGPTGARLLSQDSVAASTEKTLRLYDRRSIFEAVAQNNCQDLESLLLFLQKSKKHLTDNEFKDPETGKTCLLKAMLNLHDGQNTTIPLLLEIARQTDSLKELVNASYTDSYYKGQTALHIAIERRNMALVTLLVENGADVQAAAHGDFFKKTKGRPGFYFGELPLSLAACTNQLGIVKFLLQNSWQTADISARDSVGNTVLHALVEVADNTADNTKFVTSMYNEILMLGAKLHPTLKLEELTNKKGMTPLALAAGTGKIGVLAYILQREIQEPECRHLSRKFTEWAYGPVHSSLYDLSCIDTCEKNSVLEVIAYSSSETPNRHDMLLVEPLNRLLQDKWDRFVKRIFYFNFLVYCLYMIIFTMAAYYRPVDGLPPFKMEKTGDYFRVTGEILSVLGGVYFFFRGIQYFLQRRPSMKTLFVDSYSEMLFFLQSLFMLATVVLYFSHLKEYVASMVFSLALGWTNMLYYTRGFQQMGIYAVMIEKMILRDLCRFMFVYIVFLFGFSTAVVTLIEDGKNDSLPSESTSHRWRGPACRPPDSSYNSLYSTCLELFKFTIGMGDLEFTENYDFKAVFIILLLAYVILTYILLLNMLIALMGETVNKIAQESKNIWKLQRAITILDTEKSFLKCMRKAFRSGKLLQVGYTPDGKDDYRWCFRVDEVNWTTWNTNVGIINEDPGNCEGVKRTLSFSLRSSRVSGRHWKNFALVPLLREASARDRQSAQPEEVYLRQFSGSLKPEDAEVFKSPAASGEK
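TRPV1-expressing cells were cultured overnight at 35.5C and loaded with Fluo-8 calcium dye for 40 to 90 min at room temperature. After a 10 s baseline, compound was added and calcium influx was read kinetically for 3 min (ex 480/em 520 nm).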
CtBP-E1A inh – qHTS Assay for Inhibitors of the CtBP/E1A Interaction; CtBP / adenovirus E1A interaction (AlphaScreen); activity change, % (test concentration not listed); 340,000 tested, 0.49% active; AlphaScreen GST-E1A/His-CtBP binding, 1536-well; stronger effect = lower value; control for the full effect not named in the record; in the data active means activity change below about -65%; inconclusive means about -30% to -65%; inactive means above about -30%; note: % is set by controls: 0 for no effect and ±100 for the full control effect; compound concentration not given in the record
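Steps: dispense buffer (Tris pH 8.0, NaCl 300 mM, TCEP 1 mM, BSA, Tween 20); add 5X protein mix (GST-E1A, His-CtBP, 125 nM each); pin 23 nL compound; 2 h at 37 °C, dark; add 5X beads (50 ug/mL); 1 h; read.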
* = called active by the depositor; ? = inconclusive; . = not tested or not shown; & = joins results of further samples; ! = repeats disagree; [ ] = remark or other dose.

SMILES | Menin MLL FP FL | ClpP mod | gsp agonist | Sfp inh | gsp antagonist | TRPV1 potentiator | CtBP-E1A inh
COc1cccc(=O)c2c(C)n(-c3ccc(C(=O)O)cc3)c(C)c12 | ? | . | 4%[15.4 µM] | 4.5µM* | -3% | -6 | -5
O=C(O)c1ccc(Cl)c(NCc2cccs2)c1 | -3.2 | 1.7% | -22%[15.4 µM] | 9% | -18% | 1 | 3
O=C(COc1cccc2cccnc12)N1CCc2ccccc2C1 | 5.0 | -7.4% | -16% | 3% | 1% | -4 | -7
COc1ccc2c(c1)c(C(C)=O)c(C)n2C | 0.2 | . | -2%[15.4 µM] | 9% | 0% | -9 | -3
CC(C)c1cc(-c2cc(-c3ccc(Cl)cc3)on2)nc(NCC2CC2)n1 | 1.4 | ? | 26% | -11% | -1% | 14 | 1
CN1C(=O)C(c2nnc(Nc3cccc4ccccc34)s2)C2CC1(C)Oc1ccccc12 (stereo not given) | 3.2 | -8.9% | 1% | -9% | -18% | 24 | 2
COc1ccc(/C=N/NC(=O)CN(C)S(=O)(=O)c2ccc(NC(C)=O)cc2)cc1 | -2.1 | . | 21%[15.4 µM] | 4% | -33% | 5 | -11
Cc1ccc(/C=N/NC(=O)c2cc(C)oc2C)o1 | 0.4 | 0.4% | 0% | 5% | -3% | -15 | 3
O=C(NCCc1ccccc1)C1CCC(Cn2c(=O)c3ccccc3n(Cc3cccnc3)c2=O)CC1 (stereo not given) | 3.6 | ? | -6% | 16% | -19% | -1 | 2
CCOC(=O)Cn1c(=O)oc2cc(S(=O)(=O)NCCc3ccc(C)cc3)ccc21 | 0.8 | -1.4% | 2% | 17% | -8% | 4 | 8
S=C(N/N=C/c1ccco1)NC1CC2CCC1C2 (stereo not given) | -1.3 | -11% | 2%[15.4 µM] | 15% | 0% | -14 | -1
COC(=O)[C@@]1(Cc2ccc(F)cc2)[C@H]2c3cc(C(=O)N4CCCC4)n(Cc4ccc(S(C)(=O)=O)cc4)c3C[C@H]2CN1C(=O)c1ccccc1 | 6.5 | 0.2% | . | -6% | . | . | 4

3 compounds already listed, ordered by the number in Menin MLL FP FL, rising.
SMILES	Menin MLL FP FL	gsp agonist	Sfp inh	CtBP-E1A inh
O=C(O)c1ccc(Cl)c(NCc2cccs2)c1	-3.2	-22%[15.4 µM]	9%	3
S=C(N/N=C/c1ccco1)NC1CC2CCC1C2 (stereo not given)	-1.3	2%[15.4 µM]	15%	-1
CN1C(=O)C(c2nnc(Nc3cccc4ccccc34)s2)C2CC1(C)Oc1ccccc12 (stereo not given)	3.2	1%	-9%	2

Further records:
SMILES | Menin MLL FP FL | ClpP mod | gsp agonist | Sfp inh | gsp antagonist | TRPV1 potentiator | CtBP-E1A inh
CCCCn1c(N)c(N(CC(C)C)C(=O)CSc2ccccc2C)c(=O)[nH]c1=O | . | -27% | -36%[inhibitor] | . | -4% | 5 | -11
CCOc1ccccc1NC(=O)C(OC(=O)c1ccccc1)c1ccccc1 (stereo not given) | 0.5 | -1.9% | 1% | -10% | 12% | -2 | 4
CCc1nnc(NC(=O)c2ccc(S(=O)(=O)N(CC)CC)cc2)s1 | -1.2 | -0.2% | -39%[inhibitor] | 0% | -8% | 1 | -9
Cc1ccc(CNC(=O)C2CC(=O)N(C3CCCC3)C2)cc1 (stereo not given) | . | -4.7% | -13% | . | 7% | -3 | 0
CN1C(=O)/C(=C\c2cc(N=Nc3ccccc3)ccc2O)SC1=S | 0.2 | -1.5% | -23% | -2% | -7% | 17 | -11
COc1cccc(CNC(=O)c2ccc(NC(=O)C3CCCO3)cc2)c1 (stereo not given) | 1.7 | -1.2% | 11% | -2% | 3% | -5 | 4
COc1ccc(/C=C(/CC(=O)NCc2ccc(Cl)cc2)c2nc3ccccc3s2)cc1 | 8.3 | 112% | 10% | -31% | 1% | 1 | 8
COc1ccccc1CN1C[C@@H]2C[C@@H](c3cccc(C)n3)N3CCC[C@@]23C1=O | -2.8 | . | -1% | -18% | -1% | -3 | -1
COc1ccc(OCC(=O)NCc2n[nH]c(=O)c3ccccc23)cc1 | . | . | -1%[15.4 µM] | . | 6% | 4 | 0
N#Cc1c(C#N)c(-c2ccccc2)n(-c2ccccc2)c1N | 0.1 | 28µM* | 14% | 2% | -6% | 11 | -3
CCOC(=O)CCn1cc(F)c(=O)[nH]c1=O | 0.1 | . | 10%[15.4 µM] | 15% | -8% | 10 | 1
O=[N+]([O-])c1cccc2c(N3CCCC3)ccnc12 | 0.4 | . | 13%[15.4 µM] | 15% | -12% | 12 | 1
N#Cc1ccc(CO/N=C/c2ccccc2)cc1 | 5.8 | . | 0%[15.4 µM] | -11% | 8% | -9 | -2
Cc1noc(NS(=O)(=O)c2ccc(NC(=O)CSc3nc4ccccc4s3)cc2)c1C | 1.3 | 0.6% | -36% | 50µM* | -12% | 6 | -22
O=c1[nH]c2c(s1)C=Nc1ccccc1N2 | ? | 22% | -23% | 10% | ? | 0 | -26
Cc1cc(C)cc(NC(=O)COc2coc(CN3CCN(c4ccccc4)CC3)cc2=O)c1 | . | -1.6% | 23% | . | 5% | 5 | -1
CCCC1NC(=O)NC(C)=C1C(=O)OCC (stereo not given) | 2.9 | -1.5% | 12% | 0% | 5% | 17 | 13
CCN(CC(=O)Nc1ccc(OC)cc1)C(=O)c1cc(S(=O)(=O)N(C)C)ccc1N1CCCC1 | . | . | -24%[15.4 µM] | . | -10% | 8 | -17
CCC(C)(C)n1nnnc1C(c1cc2ccc(C)cc2[nH]c1=O)N(Cc1cccnc1)Cc1ccco1 (stereo not given) | 2.3 | -1.2% | -16% | -18% | -7% | 8 | 13
O=C(NCCOc1cccc(Oc2ccccc2)c1)c1cc(-n2cnnc2)ccc1Cl | 1.4 | -1.5% | 4% | -11% | ? | -6 | -3
Cc1ccccc1OCc1nc2c3c(ncn2n1)-c1ccccc1CC31CCCC1 | 1.6 | -23% | -53%[inhibitor] | -3% | 11% | 12 | 6
Cc1ccc(N(C(=O)CNC(=O)c2ccco2)C(C(=O)NC2CCCC2)c2ccncc2)c(C)c1 (stereo not given) | 2.5 | . | 8% | 6% | -2% | 29 | -25
CC(=O)Nc1ccc(NC(=O)c2cc(-c3cc(C)cc(C)c3O)n[nH]2)cc1 | -10 | -11% | -9% | 8% | -5% | 11 | .
CC1C(C#N)=C(SCC(N)=O)NC2=C1C(=O)CC(C)(C)C2 (stereo not given) | 2.1 | . | 5%[15.4 µM] | -18% | 7% | 11 | 0
N#Cc1c(N)c(C#N)c(-c2ccc3c(c2)OCO3)c2c1CCCC2 | 1.9 | 32µM* | -22% | 8% | 32%[activator] | -32 | 0
CC(C)NCCOCCOc1ccccc1F | 2.7 | -12% | -2% | -24% | 1% | 1 | -2
O=C(CCCCCn1c(=O)[nH]c2ccsc2c1=O)NCc1ccc2c(c1)OCO2 | 4.2 | -0.5% | -17% | -1% | -2% | . | -3
COC(=O)[C@H](Cc1c[nH]c2ccccc12)NCc1cccc(B(O)O)c1 | . | -3.3% | . | . | -1% | . | 0
COc1ccc(CC(=O)Nc2ccc3c(c2)CCC3)cc1OC | 6.0 | 24% | 0% | -3% | 4% | -18 | 9
Cc1cccc(-c2csc(NC(=O)c3cnccn3)c2C(=O)OC(C)C)c1 | 5.8 | -1.0% | -1% | 14% | 6% | 10 | 6
Cc1ccccc1N=C1NC(=O)CC(c2ccccc2)S1 (stereo not given) | 5.1 | -0.3% | -13% | 4% | -2% | 12 | -16
CCOCCCn1c(=N)c(C(=O)NCc2ccc3c(c2)OCO3)cc2c(=O)n3ccccc3nc21 | -8.3 | . | . | 15% | . | -8 | .
CCOC(=O)C1CCCN(CCC(=O)Nc2ccc(Br)cc2)C1 (stereo not given) | -4.7 | 13% | 6%[15.4 µM] | -4% | 12% | 4 | 3
C/C(CCC1CC(C)(C)OC1=O)=N\NC(N)=S (stereo not given) | 0.4 | 0.7% | 5%[15.4 µM] | 45µM* | 0% | 5 | 2
CCONC(=NC)c1nonc1N | 4.4 | . | -5% | 19% | -1% | 0 | 0
Cc1onc(-c2c(F)cccc2Cl)c1C(=O)N1C=CC(C(F)(F)F)=NCC1 | 4.8 | -1.8% | 8% | 5% | 0% | . | 0
Cc1cc(C)n2nc(SCc3cc(=O)oc4ccc5ccccc5c34)nc2n1 | 7.0 | -11% | -1% | 1% | -4% | 7 | -9
CCc1nn(C(CC)C(=O)NCCc2ccc(OC)cc2OC)c(=O)c2cc3occc3n12 (stereo not given) | 0.9 | -3.1% | -1% | -1% | -22% | -2 | -13
COc1cc2c(C#N)c(N3CCCC3)nc(N)c2c(N)n1 | -16 | 3.9%&3.7% | 10%&9% | 4µM* | 6%&-1% | . | -73*!
COc1ccc(CCN2CC(C(=O)NC3CCCCC3)CC2=O)cc1OC (stereo not given) | 3.9 | 0.2% | -10% | -3% | -6% | 8 | 7
COc1ccc(Cl)cc1NC(=O)c1cc(-c2ccco2)on1 | 2.4 | -23% | 12%[15.4 µM] | 1% | -1% | 4 | 4
CCN(CC)c1ccc(/C=C2/C(=O)ON=C2C)cc1 | ? | -3.2% | ? | -16% | -14% | -22 | -21
CCOc1ccc(C2(C)NC(=O)N(CCN(C)C)C2=O)cc1 (stereo not given) | -3.2 | . | -29% | 7% | 5% | 0 | 2
Cc1cc(=O)[nH]c(N/N=C/c2cccc([N+](=O)[O-])c2)n1 | 5.9 | . | . | -29% | . | 3 | .
CCC(C)NC(=O)Cn1c(=O)n(CCCCC(=O)NCc2ccco2)c(=O)c2ccccc21 (stereo not given) | 2.7 | -28% | -40%[inhibitor] | 9% | 6%[15.4 µM] | 3 | 4
CCN(CC)S(=O)(=O)c1ccc(C)c(NC(=S)N2CCN(C/C=C/c3ccccc3)CC2)c1 | -0.3 | -0.3% | -32%[inhibitor] | -10% | -16% | 5 | .
